From PubChem
MT1-MMP act inh = blocks activation of human MT1-MMP | P50281 | HT1080 RFP-PRO-GFP cells, GFP/RFP ratio fluorescence, overnight; percent of plate control window, DMSO zero | GFP/RFP ratio change, % at 20 µM | hit rate 0.061% among 360,000;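 active = GFP/RFP ratio change of at least 30% with cell ATP level not reduced by more than half and red fluorescence within 50% of control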; also: strong numbers were not always called active
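Assay system: RFP-PRO-GFP reporter HT1080 cells; read-out basis: GFP/RFP fluorescence ratio; benchmarks: DMSO wells and RFP-L50D-GFP cells; doses: 20 µM single dose, 1% DMSO; schedule: overnight cell settling, then overnight compound exposure, 37 °C, 5% CO2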
Rce1 inhib = blocks yeast Ras-converting enzyme; Q03530; yeast membranes, quenched prenylated peptide cleavage fluorescence; calls only; hit rate 0.27% among 290,000; AID 2563;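 active = fall in fluorescence gain of 50% or more versus controls, with final raw signal at or below 3038400; inconclusive = same 50% fall but final raw signal above 3038400; inactive = fall in fluorescence gain under 50%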;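 also: plate controls were neutral control wells for no effect and wells lacking membranes for full effect; tested at 10 µM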
Target sequence (Q03530 whole entry, looked up): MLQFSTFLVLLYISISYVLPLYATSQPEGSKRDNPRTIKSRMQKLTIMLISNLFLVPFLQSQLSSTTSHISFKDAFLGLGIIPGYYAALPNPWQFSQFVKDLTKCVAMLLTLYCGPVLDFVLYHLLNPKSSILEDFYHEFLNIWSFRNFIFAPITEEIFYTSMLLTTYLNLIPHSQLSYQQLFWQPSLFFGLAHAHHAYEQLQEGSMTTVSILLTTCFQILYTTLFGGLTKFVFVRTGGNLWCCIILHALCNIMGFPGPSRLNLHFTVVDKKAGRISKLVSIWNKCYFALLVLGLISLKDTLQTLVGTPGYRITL
Yeast UUG start = alters start codon recognition fidelity in yeast; hit rate 0.13% among 350,000; AID 602363; activity score, % at 18.7 µM; S. cerevisiae UUG-firefly luciferase reporter, luminescence/redox ratio;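 active = replicate mean at a twofold rise or more, about +100% in these data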;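 also: firefly luciferase made from a UUG start codon reports start codon fidelity; reporter light over untreated wells divided by growth signal over untreated wells; some hits fall short of that in this replicate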
PABP polyA inh = blocks human PABP binding to poly(A) RNA | fluorescence polarization | P11940 | hit rate 1% among 290,000 | inhibition, % at 35 µM;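 active = 50% or more with normal probe brightness, or confirmed in later tests; inconclusive = above 50% with abnormal brightness, or retests that disagree; inactive = below 50% or failed in later tests; about a fifth of its hits are not listed in these tables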;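 also: calls also rest on retests at 20 µM and on dose response follow-up; controls were probe without protein and protein plus probe with vehicle; some compounds called inactive have numbers as strong as hits; many hits fall short of the cut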
Target sequence (P11940 whole entry, looked up): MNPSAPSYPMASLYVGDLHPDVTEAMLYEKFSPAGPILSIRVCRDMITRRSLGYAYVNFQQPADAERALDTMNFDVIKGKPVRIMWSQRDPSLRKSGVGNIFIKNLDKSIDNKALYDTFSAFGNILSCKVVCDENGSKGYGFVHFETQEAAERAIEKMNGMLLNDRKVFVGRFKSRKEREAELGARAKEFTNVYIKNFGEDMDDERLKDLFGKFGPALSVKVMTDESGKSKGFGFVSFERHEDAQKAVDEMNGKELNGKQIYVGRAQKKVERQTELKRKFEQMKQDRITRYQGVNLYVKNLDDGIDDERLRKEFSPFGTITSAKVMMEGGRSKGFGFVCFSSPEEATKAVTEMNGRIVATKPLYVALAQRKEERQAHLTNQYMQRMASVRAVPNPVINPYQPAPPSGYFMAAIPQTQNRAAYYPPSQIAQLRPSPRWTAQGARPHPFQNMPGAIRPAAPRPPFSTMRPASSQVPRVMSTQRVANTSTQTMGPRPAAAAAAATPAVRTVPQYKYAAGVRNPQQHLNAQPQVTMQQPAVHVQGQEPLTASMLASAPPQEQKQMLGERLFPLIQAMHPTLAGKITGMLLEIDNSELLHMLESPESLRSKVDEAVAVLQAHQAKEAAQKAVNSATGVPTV
Env fusion inh = inhibitors of HIV Env-mediated cell fusion; inhibition, % at 12.3 µM; AID 651610; hit rate 1.1% among 360,000; HeLa-JRFL Env/CEM21 cell fusion, luciferase;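 active = mean replicate inhibition score of at least 50 and every replicate individually at or above 50; inconclusive = only one of the two criteria met; inactive = mean below 50 and not all replicates reaching 50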;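 also: 0% = plate neutral controls and 100% = maraviroc near 300 nM; one replicate is shown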
CSC inhib = cancer stem cell inhibition. inhibition, % at 7.5 µM. hit rate 1.1% among 300,000. cancer stem cell-like cells viability, luminescence. AID 2717;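 active = mean at 75% or more and at least half the replicates too; inconclusive = mean and replicates disagree; tested in HMLE shEcad cells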;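 also: 0% = median of negative and 100% = median of positive control wells; the first replicate is given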
eIF4H inh = inhibitors of RNA binding by human eIF4H | Q15056 | eIF4H fluorescence polarization binding assay | inhibition, % at 35 µM | hit rate 0.94% among 290,000 | AID 2012;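 active = 50% or more with normal probe brightness, or confirmed in later tests; inconclusive = above 50% with abnormal brightness, or retests that disagree; inactive = below 50% or failed in later tests; about a fifth of its hits are not listed in these tables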;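 also: calls also rest on retests at 20 µM and on dose response follow-up; 0% = protein and probe with vehicle and 100% = probe without protein; strong numbers were not always called active; many hits fall short of the cut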
eIF4H inh retest = further read-out of eIF4H inh, marked with its call; inhibition, %; compound at 20 µM; confirmation average;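 mean of two retest wells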
PABP polyA inh retest = further read-out of PABP polyA inh, marked with its call; inhibition, %; compound at 20 µM; confirmation repeats;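 mean of two retest wells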
MT1-MMP act inh RFP = also measured in MT1-MMP act inh; calls as there; RFP signal change, %; measured here: RFP expression control read;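 0 = vehicle wells; hits needed this value within 50% of zero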
* = called active by the depositor; i = inactive; ? = inconclusive; / = no result given; + = active, no number; & = joins results of further samples.

SMILES | MT1-MMP act inh | MT1-MMP act inh RFP | Rce1 inhib | Yeast UUG start | PABP polyA inh | Env fusion inh | CSC inhib | eIF4H inh | others
COc1cc(C2Nc3ccccc3C(=O)N2c2ccc3c(c2)OCCO3)ccc1OCC(C)C (stereo not given) | 4 | 1 | i | / | -7 | / | 12 | -3
CCOC(=O)c1cnc2c(c(C)nn2C)c1Oc1ccccc1F | -3 | -1 | i | / | 0 | 10 | -14 | -12
Cc1ccc(-c2nc3ccc(C(=O)O)cc3nc2-c2ccc(C)cc2)cc1 | -1 | -4 | i | -15 | 2 | 14 | 9 | -9
CC1(C)CC(=O)c2c(-c3cccs3)n[nH]c2C1 | 11 | 3 | i | -12 | 7 | -49 | 4 | -3
CCN(CC)c1ccc(-c2nn3c(-c4cccnc4)nnc3s2)cc1 | -8 | -9 | i | -29 | 6 | -173 | / | 0
CN(C)c1cccc(N=C2C=C(N3CCOCC3)CC(C)(C)C2)c1 | -3 | 4 | i | -10 | 13 | / | -12 | 1 | eIF4H inh retest=-4;PABP polyA inh retest=8
CN(c1ccccc1)S(=O)(=O)c1cccc(NC(=O)CN2CCc3ccccc3C2)c1 | 0 | 0 | i | / | -5 | -4 | -27 | -3
COc1ccc(C2CC(=O)Oc3cc(O)ccc32)cc1 (stereo not given) | 0 | 5 | / | -12 | / | -53 | / | /
O=C(Cn1c(=O)cnc2ccccc21)NNC(=O)c1ccccc1Cl | 1 | 4 | / | -12 | / | -8 | -6 | /
O=C(O)c1ccc(-c2ccc(/C=N/Nc3ccc([N+](=O)[O-])cc3)o2)cc1 | -130 | 5 | i | / | 16 | -10 | -8 | 45
Clc1nc2nc3n(c2nc1Cl)CCC3 | -2 | 6 | i | -7 | 6 | -9 | -13 | -2
CCOC(=O)N1CCN(C(=O)Nc2ccc3nc(C)c(C)nc3c2)CC1 | 3 | 0 | i | -4 | -8 | / | 1 | 2
CC1(C)CC(=O)C=C(c2cccc(Br)c2)C1 | -5 | -1 | / | -5 | / | -19 | -28 | /
CC(Oc1cccc(Cl)c1)C(=O)Nc1ccc([N+](=O)[O-])cn1 (stereo not given) | 2 | 0 | i | / | 2 | 6 | -8 | 7
COC(=O)c1ccc(CSc2ncnc3c2sc2nc(N4CCOCC4)c4c(c23)CCCC4)o1 | -4 | 3 | i | -18 | / | -8 | 5 | /
CCCCC[n+]1ccn(-c2nc3ccccc3nc2[N-]S(=O)(=O)c2ccc(C)cc2)c1 | 2 | 10 | i | -16 | 17 | -135 | -11 | 25
COc1ccc(C(=O)CSc2cc(C)nc3nc(C)nn23)cc1OC | 5 | 0 | i | -24 | -3 | / | -14 | -6
Cc1ccc(C(=O)CCC(=O)OCC(=O)N2c3ccccc3NC(=O)C2(C)C)cc1 | -1 | 1 | / | -11 | / | -9 | / | /
C[C@@H]1CN([C@H](C)CO)C(=O)CCCn2nncc2CO[C@H]1CN(C)C(=O)OCc1ccccc1 | 0 | 1 | / | -16&-12 | / | -13 | / | /
CC(C)N(C(=O)COC(=O)[C@@H]1CC(O)CN1S(=O)(=O)c1ccc(C(C)(C)C)cc1)C(C)C (stereo not given in full) | 1 | -5 | i | 3 | 5 | 4 | -7 | 2
CCC1=Nc2cc(C(=O)NCCN3CCOCC3)ccc2Sc2ccc(C)cc21 | 0 | 2 | i | -4 | / | -1 | 11 | /
CCC(C(=O)NC1CCCC1)N(Cc1cccs1)C(=O)Cn1nnc(-c2ccc(OC)c(OC)c2)n1 (stereo not given) | -1 | -6 | i | 22 | 2 | / | 4 | 2
O=C(NCc1cc(Cl)cc(Cl)c1)c1csc(COCCO)n1 | -5 | 1 | / | -14 | / | 3 | / | /
Cc1ccc(S(=O)(=O)/N=C(\c2ccc(F)cc2)n2c(C)nc3ccccc32)cc1 | 6 | 7 | i | -1 | -1 | / | / | -12
O=C(CSc1nc2ccccc2[nH]1)Nc1ccc2c(c1)CCC2 | -6 | -3 | i | 1 | 6 | 21 | / | -15

Compounds shown so far that contain a nitro group on carbon:
SMILES | MT1-MMP act inh | MT1-MMP act inh RFP | Rce1 inhib | Yeast UUG start | PABP polyA inh | Env fusion inh | CSC inhib | eIF4H inh | others
O=C(O)c1ccc(-c2ccc(/C=N/Nc3ccc([N+](=O)[O-])cc3)o2)cc1 | -130 | 5 | i | / | 16 | -10 | -8 | 45
CC(Oc1cccc(Cl)c1)C(=O)Nc1ccc([N+](=O)[O-])cn1 (stereo not given) | 2 | 0 | i | / | 2 | 6 | -8 | 7

The list continues.
SMILES | MT1-MMP act inh | MT1-MMP act inh RFP | Rce1 inhib | Yeast UUG start | PABP polyA inh | Env fusion inh | CSC inhib | eIF4H inh | others
Nc1cc(OCC(F)(F)F)cc(OCC(F)(F)F)c1 | -3 | 0 | i | / | 32 | 8 | -8 | 0
Cc1cccc(N2C(=O)c3ccc(C(=O)Nc4c[nH]c(=O)[nH]c4=O)cc3C2=O)c1 | 2 | 8 | i | 5 | 5 | 0 | -8 | -13
O=C(c1ccc([N+](=O)[O-])cc1)N1CCSC1c1ccccc1Cl (stereo not given) | 3 | 3 | i | -22 | 8 | 3 | -4 | -6
CC(=O)Cc1cc(=O)c2c(C)cc(O)c(C3OC(CO)C(O)C(O)C3O)c2o1 (stereo not given) | 5 | 6 | i | -3 | 9 | / | -14 | 0
Cn1cc(SCC(=O)NCc2ccc(F)cc2)c2ccccc21 | -2 | 4 | i | / | -15 | 25 | 5 | -7
NC(=O)c1ncn([C@@H]2O[C@H](CNS(=O)(=O)c3cc(S(=O)(=O)c4ccccc4)cs3)[C@@H](O)[C@H]2O)n1 | 2 | 1 | / | -4 | / | -35 | / | /
CCc1ccc2nc3c(c(C(=O)O)c2c1)CCC3 | -6 | -1 | i | -30 | 21 | -116 | -10 | 4
CCOC(=O)c1ccc(NS(=O)(=O)c2c(C)n[nH]c2C)cc1 | 0 | 1 | / | 5 | / | -7 | -1 | /
C/C(=N\NC(=O)c1ccc(N2CCCC2=O)cc1)c1ccncc1 | 2 | 1 | i | / | -10 | -5 | 0 | 12
Cn1ncc(Cl)c1C(=O)N1CCN(S(=O)(=O)c2cccs2)CC1 | -5 | 2 | i | 3 | -8 | -10 | -4 | -6
CCOc1ccccc1C(=O)OCC(=O)Nc1cccc(S(=O)(=O)NC2=NCCCCC2)c1 | 5 | 2 | / | 5 | / | 1 | / | /
N#C/C(=C\c1ccc([N+](=O)[O-])cc1)c1nc(C2CC2)cs1 | -20 | 1 | i | / | -4 | / | 6 | ?
CCC(C)NC(=O)CSc1nc2ccsc2c(=O)n1NC(=O)c1ccccc1 (stereo not given) | 3 | 7 | i | -5 | -2 | -40 | / | 4
CC(=O)n1c2ccccc2c2ccccc21 | 4 | -1 | i | -25 | -7 | -35 | -9 | -1
Cc1ccc(S(=O)(=O)N[C@H](C(=O)N2CCC3(O)CCCCC3C2)c2ccccc2)cc1 (stereo not given in full) | 3 | 1 | i | -1 | -10 | / | -17 | -16
O=C(Nc1ccc(Cl)cc1)C1Cc2c(-c3ccc(Cl)cc3)ccnc2O1 (stereo not given) | 7 | -10 | / | 14 | / | 3 | / | /
Cc1cccc(-c2cc(C(=O)N/N=C/c3cccnc3)c3ccccc3n2)c1 | 0 | -5 | i | -25 | / | 11 | 2 | /
Cc1cccc(N=[N+]([O-])c2cccc(C)n2)n1 | 4 | 7 | / | -13 | / | -56 | / | /
CCSc1cc(N2CC(C)OC(C)C2)nc(-c2ccccc2Cl)n1 (stereo not given) | 0 | -3 | i | -14 | 2 | / | 61 | -8
Cc1nc2ccccc2n1S(=O)(=O)c1ccc(S(=O)(=O)N2CCCCCC2)cc1 | 4 | 11 | i | -8 | 22 | -2 | -1 | -12
NC(=O)c1ccc(C(=O)c2ccc([N+](=O)[O-])cc2)cc1 | -1 | -2 | i | / | 34 | / | -13 | 4
CC(=O)Nc1ccc(NS(=O)(=O)c2ccc(Cl)s2)cc1 | 2 | 2 | i | / | -10 | -9 | -3 | -7
O=C(CCCn1c(=O)oc2ccccc21)NC1CCCCCC1 | / | / | i | / | 12 | / | 5 | 10
CCOC(=O)C1CCCN(S(=O)(=O)c2ccc3c(c2)N(C)C(=O)CC(=O)N3C)C1 (stereo not given) | 0 | 2 | i | -7 | -2 | -18 | 2 | -13
Oc1ccccc1Nc1ncnc2c1oc1ccccc12 | -3 | 4 | i | / | 18 | / | 9 | 1

Next section
SMILES | MT1-MMP act inh | MT1-MMP act inh RFP | Rce1 inhib | Yeast UUG start | PABP polyA inh | Env fusion inh | CSC inhib | eIF4H inh | others
CCn1cc(/C=C(\NC(=O)c2ccccc2)C(=O)N2CCOCC2)c2ccccc21 | -2 | 2 | + | -18 | -4 | 3 | / | -9
CCCCN(CC)CCNC(=O)C1c2cc(OC)c(OC)cc2C(=O)N2CCc3ccccc3C12 (stereo not given) | 0 | 0 | i | -9 | -10 | -78 | -6 | -1
CC(=O)N1c2ccc(S(=O)(=O)N3CCC(C(=O)NC4CCCCC4)CC3)cc2CC1C (stereo not given) | 1 | -2 | i | -6 | / | 16 | -14 | /
Cc1cc(C)nc(SCc2cc(=O)c(OC(=O)c3ccc(Cl)c([N+](=O)[O-])c3)co2)n1 | 2 | 1 | i | 5 | -12 | -25 | -8 | 2
O=C(Cc1ccsc1)Nc1ccc2c(c1)OCO2 | 3 | 3 | / | -21 | / | -9 | / | /
Cc1cc(C)nc(SCC(=O)OC(C)C(=O)Nc2ccccc2)n1 (stereo not given) | 1 | 2 | i | 1 | 9 | -22 | -10 | 7
Cc1cccc(S(=O)(=O)Nc2nc3ccccc3nc2NCC2CCCO2)c1 (stereo not given) | -7 | -5 | i | -4 | 11 | -6 | 0 | 1
COc1ccc(C(=O)Nc2ccc3nc(C)sc3c2)cc1S(=O)(=O)N1CCOCC1 | 8 | -7 | / | 5 | / | 7 | / | /
COCCCN(C(=O)c1cccnc1SC)c1c(N)n(Cc2ccccc2)c(=O)[nH]c1=O | 3 | 1 | i | 5 | -2 | -28 | -4 | 6
COc1ccc(C(=O)NCCCN=C2NS(=O)(=O)c3ccccc32)cc1 | 0 | -3 | i | -2 | -4 | 18 | / | -3

Sorted by count of non-hydrogen atoms (ascending): part of the list above
SMILES | MT1-MMP act inh | MT1-MMP act inh RFP | Rce1 inhib | Yeast UUG start | PABP polyA inh | Env fusion inh | CSC inhib | eIF4H inh | others
CCc1ccc2nc3c(c(C(=O)O)c2c1)CCC3 | -6 | -1 | i | -30 | 21 | -116 | -10 | 4
N#C/C(=C\c1ccc([N+](=O)[O-])cc1)c1nc(C2CC2)cs1 | -20 | 1 | i | / | -4 | / | 6 | ?
Cn1ncc(Cl)c1C(=O)N1CCN(S(=O)(=O)c2cccs2)CC1 | -5 | 2 | i | 3 | -8 | -10 | -4 | -6
Cc1ccc(C(=O)CCC(=O)OCC(=O)N2c3ccccc3NC(=O)C2(C)C)cc1 | -1 | 1 | / | -11 | / | -9 | / | /
